FEN1 inh: qHTS Assay for the Inhibitors of Human Flap endonuclease 1 (FEN1); P39748; Recombinant FEN1 flap cleavage, fluorescence, 15 min; Potency, µM (titrated, usually from 114 µM), for the others: at the top dose activity change, negative = inhibition, hits mostly inhibitors; actives 0.35% (n = 390,000); AID 588795, 2011; further: nearly all actives have a fitted effect of over 65% in size
Target sequence (P39748 whole entry, looked up): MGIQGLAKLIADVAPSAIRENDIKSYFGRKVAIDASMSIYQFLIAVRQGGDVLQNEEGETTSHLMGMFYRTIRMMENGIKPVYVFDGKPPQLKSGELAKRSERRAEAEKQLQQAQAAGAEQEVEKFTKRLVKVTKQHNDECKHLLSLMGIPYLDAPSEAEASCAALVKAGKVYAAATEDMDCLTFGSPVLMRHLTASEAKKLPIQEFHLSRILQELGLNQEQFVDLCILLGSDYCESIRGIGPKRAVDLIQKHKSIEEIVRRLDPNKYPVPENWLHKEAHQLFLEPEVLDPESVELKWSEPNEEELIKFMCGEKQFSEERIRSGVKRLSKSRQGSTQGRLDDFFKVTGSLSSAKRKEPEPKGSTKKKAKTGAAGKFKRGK
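Potency values derive from four-parameter Hill fits of normalized qHTS data. The reaction used 10 nM FEN1 preincubated 15 min at room temperature with compound, then 50 nM DNA substrate, read at 0 and 15 min.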
N370S GC mod: qHTS Assay for Inhibitors and Activators of N370S glucocerebrosidase as a Potential Chaperone Treatment of Gaucher Disease; N370S GC spleen homogenate, 4MU-glucoside fluorescence; actives 0.092% (n = 330,000); Potency, µM (doses to about 59.4 µM), for the others: at the top dose activity change, negative = inhibition, usual class: inhibitors;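 further: 0% = full enzyme activity and -100% = no enzyme basal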
Active calls of the source: *; ? = inconclusive; nt = not tested or not shown; & = joins results of further samples; [ ] = another dose, or the depositor's remark. The call rests on the fitted dose curve; in most records, active means well fitted curve in the direction sought with a large enough effect; inconclusive means small, poorly fitted or top-dose-only effect, or another doubt; inactive means no such curve, though single readings can be large; an effect the other way counts as inactive or inconclusive. Unless noted, on the % scale 0 is the no-effect control and ±100 the full control effect; potency means the concentration at half of the fitted maximal effect.

Preview (6 entries):
Compound	FEN1 inh	N370S GC mod
CCN(C(=O)Cn1c(=O)n(-c2ccccc2)c(=O)c2ccc(C(=O)NCc3ccc4c(c3)OCO4)cc21)c1cccc(C)c1	12%	nt
Cc1nn(Cc2ccccc2Cl)c(C)c1NC(=O)CSc1n[nH]c(C)c1[N+](=O)[O-]	nt	-9%
CCOC(=O)N1CCN(C(=O)c2ccc(CNS(=O)(=O)c3ccc(NC(C)=O)cc3)cc2)CC1	5%	-6%
O=C(CCNC(=O)c1ccc([N+](=O)[O-])cc1)Nc1ccccc1N1CCCCC1	-3%	-5%
CCNc1ccc(C(=O)OCC(=O)N2c3ccccc3NC(=O)C2(C)C)cc1[N+](=O)[O-]	-7%	4%
O=C(N/N=C/c1cccc2ccccc12)c1cc2ccccc2o1	17%	5%

Results, previewed entries included:
Compound	FEN1 inh	N370S GC mod
CCN(C(=O)Cn1c(=O)n(-c2ccccc2)c(=O)c2ccc(C(=O)NCc3ccc4c(c3)OCO4)cc21)c1cccc(C)c1	12%	nt
Cc1nn(Cc2ccccc2Cl)c(C)c1NC(=O)CSc1n[nH]c(C)c1[N+](=O)[O-]	nt	-9%
CCOC(=O)N1CCN(C(=O)c2ccc(CNS(=O)(=O)c3ccc(NC(C)=O)cc3)cc2)CC1	5%	-6%
O=C(CCNC(=O)c1ccc([N+](=O)[O-])cc1)Nc1ccccc1N1CCCCC1	-3%	-5%
CCNc1ccc(C(=O)OCC(=O)N2c3ccccc3NC(=O)C2(C)C)cc1[N+](=O)[O-]	-7%	4%
O=C(N/N=C/c1cccc2ccccc12)c1cc2ccccc2o1	17%	5%
O=C(/C=C/c1ccccc1Cl)N1CCN(c2ncccn2)CC1	5%	7%
N#C/C(C(=O)NCCc1ccccc1)=C1/N=C(NC(=O)c2cccs2)c2ccccc21	-17%	5%

Continuation:
Compound	FEN1 inh	N370S GC mod
CC1=CN2C(=N)/C(=C/c3cn(CCCOc4ccccc4C)c4ccccc34)C(=O)N=C2S1	3%	9%
COc1ccc(OCC(=O)Nc2c(C(=O)N(CCN(C)C)Cc3ccco3)oc3ccccc23)cc1	-10%	?
CCOC(=O)c1c2ccc(OCC(=O)NN)cc2n2ccccc12	?	-8%
COCCNC(=O)C(=O)NCC1OCCN1S(=O)(=O)c1ccc(F)cc1 (centres undefined)	11%	-1%
Cc1ccc(/C=N/NC(=O)c2ccc(Br)o2)s1	-6%	2%
Cc1nnc(NC(=O)CSc2nnc(-c3ccc(S(=O)(=O)N4CCCC4)cc3)n2C)s1	-1%	6%
CCCCNC(=O)c1onc(CSc2cc(C)cc(C)c2)c1C(=O)O	-8%	19%
O=C(NCc1ccc(-n2cccc2)cc1)c1cccc(F)c1	18%	2%

(further entries)
Compound	FEN1 inh	N370S GC mod
CC(C)c1ccc(N(C(=O)c2ccc3c(c2)OCO3)C2C=CS(=O)(=O)C2)cc1 (centres undefined)	-21%	?
Cc1ccccc1C(CC(=O)c1cccs1)C(C#N)C#N (centres undefined)	-12%	5%
CCOC(=O)CC(NS(=O)(=O)c1ccc(OC)c(OC)c1)c1cccc([N+](=O)[O-])c1 (centres undefined)	-4%	13%
COc1cc(Nc2nc3ccccc3c3nnc(C)n23)cc(OC)c1	-15%	nt
CC1CCCCN1S(=O)(=O)c1csc(C(N)=O)c1 (centres undefined)	19%	?
CC1(C)CC(=O)C(C2=NC3(CCCCC3)Cc3ccccc32)=C(O)C1	0%	15%
Cc1c(N2C(=O)c3ccc(Br)cc3C2=O)c(=O)n(-c2ccccc2)n1C	7%	4%
Cc1cccc(NC(=O)CCCN=C2NS(=O)(=O)c3ccccc32)c1C	18%	nt

The results go on.
Compound	FEN1 inh	N370S GC mod
COCCCn1c(C(=O)NCCN2CCOCC2)cc2c(=O)n3cccc(C)c3nc21	2%	?
COCCCNC(=S)N/N=C/c1ccc(N(C)C)cc1	-11%	4%
CC(=O)Nc1ccc(NC(=O)CSc2nnc(NC(=O)C3CC(=O)N(c4ccc(F)cc4)C3)s2)cc1 (centres undefined)	6%	-1%
Cc1cc(N(C)NC(=S)Nc2ccccc2)nc(C)n1	6%	-4%
CCCCc1ccc(NC2=NCC(=O)N2CCc2ccccc2)cc1	-24%	-2%
COCCn1nnnc1C(c1ccc(Cl)cc1)N1CCN(C(=O)c2ccco2)CC1 (centres undefined)	6%	5%
O=C(COc1ccc(S(=O)(=O)Nc2ccccc2)cc1)NCc1ccncc1	-5%	-4%
COc1ccc(CCNC(=O)c2nn(C)c3c2CSc2ccccc2-3)cc1OC	-1%	nt

Additional results:
Compound	FEN1 inh	N370S GC mod
O=C(NCc1ccc2c(c1)CCN2C(=O)c1ccc(Cl)cc1)c1ccco1	-8%	nt
COC(=O)[C@@H]1C[C@@H]2CC[C@@H](O)C[C@@H]2N1Cc1ccc(N2CCOCC2)cc1	nt	-3%
COc1ccc(N(CC(=O)NCCSc2ccccc2)S(=O)(=O)c2ccccc2)cc1	-26%	1%
CCn1nc(C)c(Br)c1-c1nc(CS(=O)(=O)c2ccc(F)cc2)no1	-12%	25%
CCOC(=O)c1c(S(=O)(=O)NCc2ccco2)c(C)n(C)c1C	0%	0%
O=C(/C=C/c1ccc(S(=O)(=O)NCc2ccco2)cc1)N1CCN(c2ccccc2)CC1	6%	-6%
COc1ccccc1NC(=O)CSc1nnc(C)o1	0%	5%
COc1ccc(NS(=O)(=O)c2ccc3oc(SCc4ccc(F)cc4)nc3c2)cc1	?	-8%

Following part
Compound	FEN1 inh	N370S GC mod
CC1CCN(C(=O)Cn2nnc(-c3ccccc3)n2)CC1	4%	-13%
Cc1ccc(S(=O)(=O)N2CCN(Cc3ccccc3)CC2)c(C)c1N(C)S(=O)(=O)c1ccccc1	-17%	?
O=C(c1ccc(F)cc1)N1CCN(C2CC3CCC2C3)CC1 (centres undefined)	-8%	13%
O=C(CSc1ccc(F)cc1)Nc1cccc(S(=O)(=O)N2CCOCC2)c1	-10%	nt
CCOC(=O)N1CCN(CC(O)COc2c(C)cccc2C)CC1 (centres undefined)	22%	7%
CCOC(=O)c1c(NC(=O)COC(=O)Cc2ccccc2[N+](=O)[O-])sc(C(=O)N(C)C)c1C	-14%	-1%
CC(=O)NS(=O)(=O)c1ccc2sc(C)nc2c1	-11%	5%
CCn1ccc2c(OCC(=O)NCc3ccc(C)cc3)cccc2c1=O	-6%	nt

Next section.
Compound	FEN1 inh	N370S GC mod
O=C(CN(C(=O)CSc1nc2ccccc2o1)c1ccccc1)NC1CCCCC1	2%	0%
CCC1(C)Cc2c(sc3nn[nH]c(=O)c23)CO1 (centres undefined)	2%	2%
CCn1c(Cc2ccc(OC)cc2)nnc1SCC(=O)Nc1ccc(N2CCOCC2)cc1	3%	2%
S=c1[nH]c2cc(Br)cnc2[nH]1	-5%	2%
O=C(Nc1ccon1)c1sc2ccccc2c1Cl	8%	-19%
CC(C)[C@H]1C=C(C(=O)O)O[C@@H](OCCCCO)C1	-8%	6%
Cc1c(Cl)cccc1NC(=O)CCS(=O)(=O)c1cccc2nonc12	4%	-2%
COc1ccc(NC(=O)c2cc(-c3ccco3)on2)c(OC)c1	3%	0%

More structures follow.
Compound	FEN1 inh	N370S GC mod
Cn1cccc1CC(=O)N/N=C/C=C/c1ccccc1	2%	-19%
CC(=O)N1CCc2cc(S(=O)(=O)NCCC(=O)Nc3cccc(C)c3C)ccc21	7%	?
CCOc1ccc(NC(=O)CN2CCN(S(=O)(=O)c3ccc(OC)cc3)CC2)cc1	1%	nt
CCOC(=O)C1=C(C)N=C2SC=C(C)N2C1c1ccc(OC)cc1 (centres undefined)	11%	-19%
CCOC(=O)c1cc(NC(=O)c2ccc(Cl)cc2)c(=O)n2c1oc1ccc(Cl)cc12	8%	-1%
COc1ccc(NC(=O)N/C=C/c2ccccc2)cc1	-6%	3%
O=C(NCCS(=O)(=O)NC1CCCCC1)c1ccc2c(c1)OCO2	-3%	-13%
O=C(CCNC(=O)c1ccccc1)NCc1ccccc1F	-10%	nt

(next part)
Compound	FEN1 inh	N370S GC mod
Cc1ccc(S(=O)(=O)N2CCC(C(=O)OCC(=O)N(C)CC(=O)Nc3ccc(F)cc3)CC2)cc1C	0%	-9%
O=C1NC(=O)C(c2ccccc2)(c2ccccc2)N1	35%&10%[activator]	15%&5%&20%&4%&-7%&1%&6%&-5%
COC(=O)c1sc2cccc(F)c2c1S(=O)(=O)NC(C)c1ccccc1 (centres undefined)	9%	nt
CCc1cc(=O)[nH]c(SCC(=O)NCc2ccc3c(c2)OCO3)n1	2%	-1%
CCN(CC)C(=O)CNc1ccc(C(F)(F)F)cc1[N+](=O)[O-]	8%	4%
O=C(Nc1cccc(S(=O)(=O)NC2=NCCCCC2)c1)c1cc(-c2ccccc2)nc2ccccc12	-17%	-5%
COc1cc(OC)cc(C(=O)N[C@H](C(=O)OCC(=O)Nc2ccc(OC)c(OC)c2)C(C)C)c1	13%	15%
CC(C)(C)OC(=O)NCCC(=O)N/N=C/c1cccc2nccnc12	13%	-5%

(listing goes on)
Compound	FEN1 inh	N370S GC mod
CCn1c(COc2ccc(=O)n(-c3ccccc3)n2)nnc1SCc1ccc(OC)cc1	-6%	6%
C=CCn1c(SCc2nc3ccccc3c(=O)[nH]2)nnc1-c1cc2cc(Cl)ccc2o1	-6%	9%
C/C(=N\NC(=O)Cc1ccc(Cl)cc1)c1cccc(NC(=O)c2cccnc2)c1	19%	0%
C=CCn1c(SCc2nc3c(c(=O)[nH]c(=O)n3CCCC)n2CCC)nnc1-c1ccccc1	1%	27%
O=[N+]([O-])c1ccc(-c2ccc(S(=O)(=O)NCCN3CCCC3)cc2)cc1	-1%	7%
COCCn1ccc2c(OCC(=O)NCc3ccc(F)cc3)cccc2c1=O	-5%	nt
CC(C)(C)NC(=O)NC(=O)CSc1nnc2ccccn12	-2%	7%
O=C(Cn1c2[n+](c3ccc(C(F)(F)F)cc31)CCCCC2)c1cccc([N+](=O)[O-])c1	-12%	1%

Carrying on:
Compound	FEN1 inh	N370S GC mod
O=C1CCc2ccc(NC(=O)C3CC3)cc2N1	0%	3%
CC1Cc2cc(/C(O)=C3/C(=O)C(=O)N(Cc4ccncc4)C3c3ccc(N(C)C)cc3)ccc2O1 (centres undefined)	-21%	0%
CCN(CC)c1ccc(C(=O)NNC(=O)c2ccc3c(=O)n4c(nc3c2)CCC4)cc1	14%	nt
COc1cc(-c2noc(-c3cc4cccc(C)c4oc3=O)n2)cc(OC)c1OC	14%	nt
Cc1ccccc1/C=C/c1cc[n+](C)cc1	-18%	-1%
Cc1cc(C)n(CC2CC(=O)N(c3ccc(Cl)cc3)C2=O)n1 (centres undefined)	-8%	2%
N#Cc1c2c(c(Nc3ccc(O)cc3)n3c1nc1ccccc13)CCC2	1%	2%
COc1ccc(/C(C)=N\NC(=O)c2ccc3c(c2)OCO3)cc1OC	nt	-5%

Following part:
Compound	FEN1 inh	N370S GC mod
CC(=O)Nc1ccc(NC(=O)C(C)OC(=O)CC23CC4CC(CC(Br)(C4)C2)C3)cc1 (centres undefined)	-1%	nt
O=Cc1c(C(=O)O)n(CC(=O)O)c2ccccc12	-4%	7%
CC(C)(C)c1ccc(C(=O)NC(=O)CSc2n[nH]c(N)n2)cc1	12%	nt
COc1ccc(OCC(O)CNC(=O)Nc2cccc3ccccc23)cc1 (centres undefined)	-12%	2%
CCC12CN3CC(C)(CN(C1)C3c1c(C)[nH]c3ccccc13)C2=O (centres undefined)	-4%	nt
C/C(N)=C(/C#N)C(=O)COC(=O)c1cc(-c2cccc3ccccc23)nc2ccccc12	0%	-25%
CCC(=O)C1CCCN(C(=O)CCc2nnc(-c3ccc4c(c3)OCO4)o2)C1 (centres undefined)	-11%	-6%
Nc1nccnc1C(=O)OCc1nc2sc3c(c2c(=O)[nH]1)CCCC3	4%	-4%

(list continues)
Compound	FEN1 inh	N370S GC mod
O=S(=O)(c1ccc(Cl)s1)N1CCC(Cc2ccccc2)CC1	-12%	7%
O=C(NCCCN1CCCC1=O)Nc1ccccc1Cl	-17%	-10%
Cc1cc(-c2ccccc2)nc(N(C)NC(=O)C(C)(C)C)c1S(C)(=O)=O	3%	9%
CCOc1ccc(N(CC)C(=O)COc2cc(=O)n(C)c3ccccc23)cc1	-10%	3%
COc1ccc(CNC(=O)C(=O)NCC2OCCN2S(=O)(=O)c2cccs2)cc1 (centres undefined)	-2%	5%
Cc1cc(C(=O)COC(=O)c2ccc[nH]c2=O)c(C)n1C1CC1	5%	-1%
CN(C)C1C(=O)C(C(N)=O)=C(O)[C@@]2(O)C(=O)C3=C(O)c4c(O)ccc(Cl)c4C(O)[C@H]3C[C@@H]12 (some centres undefined)	nt	-5%
Cc1cccc(C)c1OCc1nnc(SCC(=O)Nc2ccccc2F)o1	8%	3%

Continued.
Compound	FEN1 inh	N370S GC mod
CCCCCOc1ccc(/C=C/C(=O)Nc2sc(C)c(C)c2C(=O)OCC)cc1OC	-5%	nt
COc1cc2c(cc1OC)n(CC(=O)c1ccc(C)cc1)c(=O)n1nc(CCn3nc(C)cc3C)nc21	0%	nt
Clc1ccc(CSc2nnc3ccccn23)c(Cl)c1	7%	0%
O=C(NCc1ccncc1)C1CCN(S(=O)(=O)c2cccc(C(F)(F)F)c2)CC1	2%	-4%
Cc1cccc(N2C(=O)CC(SC(N)=Nc3ccccc3)C2=O)c1 (centres undefined)	-6%	-1%
COC(=O)Cn1c(=O)c(C(=O)CCl)c(N)n(Cc2ccccc2)c1=O	2%	-1%

Bioassay records (PubChem BioAssay)

An excerpt, and most or all hits are left out here.
